Screening results as filed in PubChem.
Beta cell apopt – inhibitors of cytokine-induced beta cell apoptosis, primary screen, luminescence; INS-1E cytokine-induced death, ATP luminescence, 48 h; percent of positive-control rescue, neutral wells zero; protection from apoptosis, % (no concentration beside the values); AID 435005, 2010; 300,000 compounds, 0.8% hits;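 active = all replicates at 75% or more, or half of them and the mean; inconclusive = half reach 75% but not the mean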;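 also: 0% = cytokine-treated negative control wells and 100% = positive control rescue; higher means more ATP so stronger rescue from cytokine killing; wells of about 40 µL received 100 nL stock; the first replicate is given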
T cruzi repl – inhibitors of intracellular T. cruzi growth, primary screen, luminescence, NIH3T3 host cells; T. cruzi beta-gal in NIH3T3, 90 h; inhibition, % (concentration not given with the values); 300,000 compounds, 1.4% hits;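 active = mean inhibition across valid replicates above about 55%, limit read from the data; inconclusive = mean below that limit but half or more replicates reach it; inactive = mean below it, under half of replicates reach it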;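 also: signal also drops with host cell toxicity which is not excluded here; 0% = plate median of DMSO wells and 100% = zero luminescence signal; higher percent means less beta-gal luminescence so fewer parasites; stock transfer was 50 nL into about 50 µL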
Calb FLC – C. albicans growth inhibition with fluconazole, primary screen, CaCi-2 strain, Alamar Blue fluorescence; 300,000 compounds, 0.57% hits; C. albicans CaCi-2 (fluconazole-resistant clinical isolate) + fluconazole, 48 h; AID 1979, 2009; growth inhibition, % (test concentration not listed);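 active = most replicates above 75%; inconclusive = exactly half above 75%; inactive = most below 75%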;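 also: all wells also contain fluconazole at 8 µg/ml as a sub-toxic cotreatment; 0% = median of DMSO wells and 100% = median of geldanamycin control wells; wells of about 8 µL received 7.5 nL stock; the first replicate is given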
Bfl-1 A1 inh – caspase 3/7 activation in MEF A1-2A-BIM cells, primary screen, A1 inhibitor project, cell-based, luminescence, HTS. 330,000 compounds, 0.066% hits. caspase activation, % (concentration not given with the values). Caspase-Glo 3/7 luminescence, 3 h; percent of clofoctol response, vehicle zero;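 active = over half of replicate activation scores above 10%, or exactly half above 10 with the replicate mean above 10; inconclusive = replicate mean below 10 yet half the replicates above 10; inactive = over half of replicates below 10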;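 also: wells of about 30 µL received 50 nL stock; many hits fall short of the cut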
RanGTP-Imp inh – inhibitors of RanGTP-importin-beta interaction, primary screen, biochemical, FRET, CFP-Ran, YFP-importin-beta, homogeneous. Ran GTPase (GTP-bound) - importin-beta complex. cell-free CFP-Ran/YFP-importin-beta FRET ratio. inhibition, % (test concentration not listed). 300,000 compounds, 1.1% hits. AID 2216, 2009;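 active = most replicates above 15%; inconclusive = exactly half above 15%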;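 also: 0% = DMSO wells and 100% = Ran loaded with GDP instead of GTP; wells of about 40 µL received 100 nL stock; the first replicate is given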
Vif TR-FRET – inhibitors of Vif binding to APOBEC3G peptide, primary screen, biochemical, TR-FRET, GST-Vif 1-94, biotin-A3G peptide, dose response retest (AID 1117319) | TR-FRET GST-Vif / biotin-A3G peptide binding; higher % means a stronger effect; test concentration not given here; strong numbers were not always called active | one-dose inhibition, %; IC50 in µM for titrated hits | 260,000 compounds, 0.57% hits;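 active = above the screen mean plus three standard deviations and confirmed in dose response; inconclusive = results disagree or hit not tested in dose response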;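 also: Vif residues 1-94 fused to GST binding biotinylated APOBEC3G peptide 110-148; 0% = full assay without inhibitor and 100% = GST in place of GST-Vif; retest series ran down from 100 µM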
MLL AF4-AF9 inh – inhibitors of AF4 peptide binding to AF9, primary screen, biochemical, AlphaScreen, biotin-AF4 peptide, FLAG-AF9, single point | Protein AF-9 (Homo sapiens), P42568 | inhibition, % at 10 µM | 350,000 compounds, 0.47% hits | AID 651704, 2012;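 active = every replicate reaching a set inhibition limit, whatever the replicate mean, cut at about 25% in these data; inconclusive = mean inhibition reaches that limit but some replicates miss it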;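 also: 0% = plate neutral control median and 100% = total signal loss; the record names both 10 and 1 µM as test concentration; the first replicate is given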
Target sequence (P42568 whole entry, looked up): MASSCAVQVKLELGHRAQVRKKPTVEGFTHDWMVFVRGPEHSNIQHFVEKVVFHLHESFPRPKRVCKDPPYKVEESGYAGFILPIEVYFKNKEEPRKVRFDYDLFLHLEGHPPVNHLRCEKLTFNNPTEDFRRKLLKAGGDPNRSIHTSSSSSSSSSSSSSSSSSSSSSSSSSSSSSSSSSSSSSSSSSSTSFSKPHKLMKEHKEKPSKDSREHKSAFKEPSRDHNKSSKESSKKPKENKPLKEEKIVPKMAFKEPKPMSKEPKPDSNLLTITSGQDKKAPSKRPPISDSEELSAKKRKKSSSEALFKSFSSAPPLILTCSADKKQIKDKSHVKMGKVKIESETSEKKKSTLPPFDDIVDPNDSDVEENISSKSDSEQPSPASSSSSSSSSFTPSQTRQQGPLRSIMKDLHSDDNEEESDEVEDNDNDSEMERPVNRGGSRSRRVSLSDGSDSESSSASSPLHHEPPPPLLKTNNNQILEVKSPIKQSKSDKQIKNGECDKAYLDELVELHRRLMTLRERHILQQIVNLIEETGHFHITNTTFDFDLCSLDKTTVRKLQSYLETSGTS
Ecoli rRNA inh – reduced GFP signal of wild-type E. coli, primary screen, bacterial rRNA inhibitor project, GFP/RFP fluorescence, OD600, single point; AID 720706, 2013; GFP signal change (wild-type ribosome), % (no concentration beside the values); E. coli WT GFP vs humanized-ribosome RFP mutants, 24 h; active compounds read low; DMSO median 0, no signal -100; 350,000 compounds, 1.6% hits;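 active = significant combined selectivity score with lowered wild-type GFP, culture density cut under 30%, mutant RFP and density less affected; inactive = any of these conditions unmet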; also: one replicate is shown; some compounds called inactive have numbers as strong as hits
Ecoli rRNA inh OD600 – also measured in Ecoli rRNA inh; calls as there; OD600 change, %; measured here: OD600 growth;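 optical density of the mix in the first replicate; 0 = DMSO median and -100 = no signal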
Ecoli rRNA inh RFP – recorded beside Ecoli rRNA inh, whose call it bears; RFP signal change, %; measured here: RFP humanized mutant strains;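 first replicate; 0 = DMSO median and -100 = no signal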
Active calls of the source: *; ? = inconclusive; . = not tested or not shown. A portion of the library; the hit share may differ from the screen's.

SMILES	Beta cell apopt	T cruzi repl	Calb FLC	Bfl-1 A1 inh	RanGTP-Imp inh	Vif TR-FRET	MLL AF4-AF9 inh	Ecoli rRNA inh	Ecoli rRNA inh OD600	Ecoli rRNA inh RFP
CCCC[C@@H]1CNC(=O)C(=O)N1CC(C)(C)C	0	-7	-11	-0.4	-2.6	2%	0.5	12	14	7.5
Cc1c(C(=O)NCc2ccccc2F)oc2ccccc12	-1	-6	6	-0.5	-0.5	.	-6.5	-28	-43	-4.1
COc1ccc(NC(=O)CCNS(=O)(=O)c2ccc3[nH]c(=O)oc3c2)cc1Cl	-2	-6	2	2.2	0.7	.	-1.6	1	6	-0.7
CN1OCC(S(=O)(=O)c2ccccc2)C1c1ccccc1 (centres undefined)	-9	-13	-8	0.3	35*	5%	-1.9	11	7	0.8
COc1cc(-c2cc(C(=O)Nc3nc4ccccc4s3)c3ccccc3n2)cc(OC)c1OC	25	38	5	-0.8	?	23%	.	.	.	.
Cc1ccccc1-c1nnn(CC(=O)N2CCN(C(=O)c3ccco3)CC2)n1	-3	-2	-5	0.4	.	-4%	-11	4	3	1.6
CCCCn1c(N)c(N(CC(C)C)C(=O)C2CC(=O)N(Cc3ccco3)C2)c(=O)[nH]c1=O (centres undefined)	-3	-2	1	0.9	0.8	.	-2.0	7	17	-1.2
Cc1cccn2c(=O)c(/C=C(\C#N)C(=O)NCc3ccco3)c(N3CCCC(C)C3)nc12 (centres undefined)	-1	7	25	-0.3	3.4	.	12	21	14	3.9
Cc1cc(C)c(C)c(S(=O)(=O)NCC(=O)N2CCCC2)c1C	-7	0	5	-0.7	4.4	2%	.	.	.	.
O=C(CN1C(=O)S/C(=C\c2ccccc2F)C1=O)NC1CCS(=O)(=O)C1 (centres undefined)	-6	-11	-17	-1.4	4.9	.	-5.7	0	5	0.4
CSc1ccccc1C(=O)NCCS(=O)(=O)N1CCN(c2ccc(F)cc2)CC1	3	17	-5	0.1	-2.4	-4%	-10	2	-11	0.1
Cc1sc(NC(=O)c2ccccc2)c(C(=O)c2ccccc2)c1C	-5	20	2	0.1	1.7	0%	10	.	.	.
CCN(CC)S(=O)(=O)c1cc(NC(=O)CN2C(=O)NC3(CCCc4ccccc43)C2=O)ccc1C (centres undefined)	-4	25	?	0.3	2.7	-3%	2.3	-25	-40	-8.0
CN(Cc1ccccc1)C(=O)c1nc2ccccn2c1CNCCn1cccn1	-15	12	-3	1.3	-0.1	-8%	.	.	.	.
CC(=O)c1ccc2c(c1)C1C=CCC1C(c1ccncc1)N2 (centres undefined)	-1	-5	-1	-0.1	-9.8	3.2µM*	.	.	.	.
CCc1noc(C)c1C(=O)Nc1ccc(S(=O)(=O)N2CCCC(C)C2)cc1 (centres undefined)	-5	7	-1	-0.1	0.4	-2%	-0.5	-18	-17	-1.9
CC12CCC(=O)N1C(C(=O)OCc1c(Cl)cccc1Cl)CS2 (centres undefined)	-1	2	-4	0.4	3.6	-6%	-0.2	-4	-4	8.2
CCOC(=O)N1CCC(NC(=O)CC2C(=O)NCCN2Cc2ccccc2)CC1 (centres undefined)	.	-12	0	-0.2	2.7	1%	-1.1	1	6	0.2
CCOC(=O)Cn1cc(/C=N/N2C(=O)C3C4C=CC(C4)C3C2=O)c2ccccc21 (centres undefined)	7	2	8	-0.5	0.0	.	0.4	13	10	1.3
Cc1cc(C=O)c(O)cc1O	1	1	-3	-0.5	6.7	.	-3.8	9	16	-9.2
Cc1ccc(C(=O)Nc2ccc(C(=O)/C=C/c3cccs3)cc2)cc1	.	8	18	-1.5	-0.7	22%	.	.	.	.
CN1CCN(CCCNC(=O)C2CCN(c3nnc(-n4cccc4)s3)CC2)CC1	-3	-11	0	0.3	6.8	?	.	.	.	.
Nc1ccc2c(c1)C(=O)N(CCCC(=O)O)C2=O	-4	-12	3	-0.2	-7.7	-2%	.	.	.	.
O=C(CNC(=O)c1cccs1)OCc1ccc(Br)cc1	-2	-8	-2	0.9	0.4	.	-3.8	-26*	-18*	0.9*
O=C(NCc1ccccc1)C(c1ccc(F)cc1)N(C(=O)c1csnn1)c1ccccc1 (centres undefined)	-2	5	24	0.5	1.8	2%	2.3	1	4	0.6
CCOc1cc(C)c(C(C)C)cc1S(=O)(=O)N1CCOCC1	-2	9	24	0.1	3.9	0%	.	.	.	.
Cc1c(C(=O)NC(C)C)c(-c2ccccc2)nn1-c1ccccc1	-11	-2	-1	-0.4	2.6	.	1.0	13	7	4.6
CN(C)CCNC(=O)c1ccc2c(c1)N(Cc1ccc(F)cc1)CCS2	1	-16	10	-0.1	1.5	0%	14	-1	-10	-2.7
COc1ccc(NC(=S)NNC(=O)c2nnn(-c3ccccc3)c2C)cc1	-5	-8	1	0.5	5.2	20%	-1.5	-16	-1	0.5
CCN(CC)CCCNC(=O)c1ccc2c(SCC(=O)O)c3c(nc2c1)CCC3	0	0	-1	-0.2	2.9	28%	.	.	.	.

Complete entries as entered above. Order of values: Beta cell apopt	T cruzi repl	Calb FLC	Bfl-1 A1 inh	RanGTP-Imp inh	Vif TR-FRET	MLL AF4-AF9 inh	Ecoli rRNA inh	Ecoli rRNA inh OD600	Ecoli rRNA inh RFP
CSc1ccccc1C(=O)NCCS(=O)(=O)N1CCN(c2ccc(F)cc2)CC1 as listed: 3	17	-5	0.1	-2.4	-4%	-10	2	-11	0.1
CCN(CC)S(=O)(=O)c1cc(NC(=O)CN2C(=O)NC3(CCCc4ccccc43)C2=O)ccc1C (centres undefined) as listed: -4	25	?	0.3	2.7	-3%	2.3	-25	-40	-8.0
Cc1ccccc1-c1nnn(CC(=O)N2CCN(C(=O)c3ccco3)CC2)n1 as listed: -3	-2	-5	0.4	.	-4%	-11	4	3	1.6
CCc1noc(C)c1C(=O)Nc1ccc(S(=O)(=O)N2CCCC(C)C2)cc1 (centres undefined) as listed: -5	7	-1	-0.1	0.4	-2%	-0.5	-18	-17	-1.9

Further entries
SMILES	Beta cell apopt	T cruzi repl	Calb FLC	Bfl-1 A1 inh	RanGTP-Imp inh	Vif TR-FRET	MLL AF4-AF9 inh	Ecoli rRNA inh	Ecoli rRNA inh OD600	Ecoli rRNA inh RFP
CC1=C(C#N)C(=O)NC(=O)/C1=C/c1ccc(-c2ccc(S(N)(=O)=O)cc2)o1	-9	-2	7	0.0	-2.7	?	0.1	10	17	1.2
Cc1ccccc1C(=O)Nc1ccnn1C1CCN(Cc2cnn(C(C)C)c2)CC1	.	52	-1	0.1	-2.0	-10%	0.5	6	4	-2.2
C1=C(c2cc3ccccc3cn2)CCCC1	-10	.	.	-14	.	.	-1.6	3	10	2.4
COc1ccc2cc3cc(C(=O)Nc4ccc5c(c4)OCCO5)oc3nc2c1	17	21	0	1.1	-1.4	-5%	.	.	.	.
COc1ccc(-n2c(CN3CCN(Cc4ccccc4)CC3)nc3ccc([N+](=O)[O-])cc3c2=O)c(OC)c1	2	24	-2	0.6	1.2	6%	2.3	6	4	-2.3
Cc1c(Cl)cccc1NC(=O)CNC(=O)c1ccc(F)cc1	0	-2	-1	0.1	0.8	.	-15	3	14	1.0
Cc1ccc(C(N)=O)cc1S(=O)(=O)Nc1cccc(C)c1C	-5	-13	-9	0.3	-3.7	7%	.	.	.	.
C#CCSc1nc(=O)c2cccnc2n1-c1ccc(C)cc1	-7	3	-2	0.0	1.3	.	-2.4	-19	9	5.5
CCN(CC(=O)Nc1ccc(OC)cc1)C(=O)Cc1ccsc1	-3	.	.	0.3	.	10%	-6.5	2	11	-2.0
O=C(NNC(=O)C12CC3CC(CC(C3)C1)C2)c1csc(N2CCOCC2)n1	-7	1	0	0.3	7.7	-12%	1.7	-1	-6	0.7
CCOc1ccc(-c2nnc(SCC(=O)O)n2Cc2ccccc2)cc1	-2	1	1	-0.2	4.2	.	-1.8	-1	-1	0.4
CCCNC(=O)CCn1cc(-c2ccc(OC)cc2)nc1-c1ccncc1	-1	-26	-4	-0.6	0.4	.	2.8	3	4	-1.2
Cc1cccc(C)c1NC(=O)CNc1ccccc1	-4	4	0	-0.3	1.6	-3%	.	.	.	.
COc1cc(Cl)ccc1OCc1cc(C(=O)N(C)CCc2cnn(C)c2)no1	3	-5	-3	-0.8	3.9	.	-2.0	1	-1	-3.0
CCOc1ccc(C(C)=O)cc1N1C(=O)C2C3C=CC(C3=C(C)C)C2C1=O (centres undefined)	0	6	10	0.6	-3.5	-3%	11	-1	-11	-5.7
O=S(=O)(c1ccc(F)cc1)N1CCN(S(=O)(=O)c2cccs2)CC1	.	7	-1	-3.1	-1.7	.	-5.1	2	-1	1.0
O=C(O)CSCC(=O)N1CCc2c([nH]c3ccccc23)C1C(F)(F)F (centres undefined)	.	-17	-19	0.5	0.5	-4%	-1.9	0	12	13
O=C(Nc1ccc(S(=O)(=O)Nc2ccccc2)cc1)c1ccc(CN2CCOCC2)cc1	3	12	1	-0.5	-2.5	9%	2.6	-14	-15	3.2
CC1CCC(NC(=O)CCS(=O)(=O)c2ccc3c(c2)NC(=O)C(C)S3)CC1 (centres undefined)	0	5	-6	0.6	0.6	.	-3.5	3	2	0.8
CCC(C(=O)NCCC(C)C)N(Cc1ccccc1Cl)C(=O)c1snc(C(N)=O)c1N (centres undefined)	7	-1	22	0.7	2.1	.	3.9	6	9	0.2
C/C(=N/NC(=O)c1ccc(C)s1)c1cccc(NC(=O)c2ccoc2C)c1	9	10	5	-0.9	0.5	-7%	2.9	-18	-16	9.4
O=C(CSCc1ccc(F)cc1)NCc1ccco1	-5	13	-7	-0.5	-4.7	11%	.	.	.	.
Cc1cc(C)c(S(=O)(=O)N2CCN(C(=O)c3cc(=O)[nH]c4ccccc34)CC2)c(C)c1	-4	.	.	1.0	.	2%	4.3	-8	-13	3.8
O=C(c1ccco1)N1CCN(c2ncnc3scc(-c4ccccc4)c23)CC1	2	6	2	0.1	-0.1	-3%	.	.	.	.
O=S(=O)(c1ccc(OCC(O)CN2CCCCC2)cc1)N1CCOCC1 (centres undefined)	-3	-5	-5	-0.3	?	-10%	.	.	.	.
N#Cc1c(Nc2ccccc2)sc(C(=O)c2ccc(F)cc2)c1N	91*	4	10	0.8	3.7	-6%	.	.	.	.
